# Source: PubChem
# CSC inhib = blocks cancer stem cells; cancer stem cell-like cells viability, luminescence; inhibition, % at 7.5 µM; actives 1.1% (n = 300,000); AID 2717;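 active = mean at 75% or more and at least half the replicates too; inconclusive = mean and replicates disagree; tested in HMLE shEcad cells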;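 note: 0% = median of negative and 100% = median of positive control wells; the first replicate is given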
# HIV Env fusion = HIV envelope-mediated fusion inhibition; HeLa-JRFL Env/CEM21 cell fusion, luciferase; inhibition, % at 12.3 µM; actives 1.1% (n = 360,000); AID 651610;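 active = mean replicate inhibition score of at least 50 and every replicate individually at or above 50; inconclusive = only one of the two criteria met; inactive = mean below 50 and not all replicates reaching 50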;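 note: 0% = plate neutral controls and 100% = maraviroc near 300 nM; one replicate is shown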
# UUG fidelity = alters start codon recognition fidelity in yeast; S. cerevisiae UUG-firefly luciferase reporter, luminescence/redox ratio; activity score, % at 18.7 µM; actives 0.13% (n = 350,000); AID 602363;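 active = replicate mean at a twofold rise or more, about +100% in these data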;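 note: firefly luciferase made from a UUG start codon reports start codon fidelity; reporter light over untreated wells divided by growth signal over untreated wells; some hits fall short of that in this replicate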
# MT1-MMP act inh = inhibitors of human MT1-MMP activation | HT1080 RFP-PRO-GFP cells, GFP/RFP ratio fluorescence, overnight; percent of plate control window, DMSO zero | P50281 | actives 0.061% (n = 360,000) | GFP/RFP ratio change, % at 20 µM;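 active = GFP/RFP ratio change of at least 30% with cell ATP level not reduced by more than half and red fluorescence within 50% of control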; note: strong numbers were not always called active
#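 Material: RFP-PRO-GFP reporter HT1080 cells. Dosing: single-point 20 µM compound, 1% DMSO. Controls: DMSO and RFP-L50D-GFP cell wells. Timing: cells overnight before dosing, compound overnight, 37 °C, 5% CO2. Measure: GFP/RFP fluorescence ratio.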
# MT1-MMP act inh RFP = also measured in MT1-MMP act inh; calls as there; RFP signal change, %; measured here: RFP expression control read;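 0 = vehicle wells; hits needed this value within 50% of zero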
# * marks the source's active call; other numbers are inactive results; ? = inconclusive. Some of the compounds tested, so the mix of outcomes need not match the whole.
SMILES,CSC inhib,HIV Env fusion,UUG fidelity,MT1-MMP act inh,MT1-MMP act inh RFP
CC[C@@H]1C(=O)OC[C@@H]1Cc1cncn1C,-17.1,?,3.0,0.3,2.0
